HSD17B inhib – HSD17B dehydrogenase inhibition; Q99714; recombinant HSD17B10, NADH fluorescence kinetic; many of its hits are not listed in these tables; Potency, µM (series often up to 57.1 µM), for the others: at the top dose activity change, negative = inhibition, usual class: inhibitors; 75,000 tested, 7.6% active; active = well fitted inhibition curve with a large enough effect; inconclusive = small, poorly fitted or top-dose-only effect; inactive = no such curve, though single readings can be large or run the other way;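 also: the protocol describes HADH2 (HSD17B10) and not the HSD17B4 of the title; nearly all actives have a fitted effect of over 70% in size; most hits overshoot -100% by far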
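Activity followed as NADH fluorescence increase (ex 360, em 450 nm) every 30 seconds for 4 min, using final 90 uM beta-hydroxybutyryl CoA and 1 mM NAD+. Recombinant His-tagged enzyme, 20 nM, pH 9.0 Tris buffer, 15 min compound preincubation.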
Numbers without * were called inactive; ? = inconclusive; & = joins results of further samples; [ ] = dose if it differs, or a comment. % is scaled to controls: 0 for no effect and ±100 for the full control effect; potency is read from the fitted curve at half-maximal effect. Only part of the results is shown, so the mix of outcomes need not match the whole.

SMILES	HSD17B inhib
CC(=O)CCc1ccccc1	0.0%
O=c1[nH]c(CN2CCC(c3nc4ccccc4s3)CC2)nc2sc3c(c12)CCC3	0.8%
COC(=O)[C@@H]1C[C@@]1(C)[C@@H](NC(=O)OCc1ccccc1)c1ccccc1	-3.1%
COc1cccc(N2C(=O)CC(N3CCC(C(N)=O)(N4CCCCC4)CC3)C2=O)c1 (stereo not drawn)	-5.3%
Cc1ccc(C)c(-n2c(CNC(=O)c3ccco3)nnc2SCC(=O)Nc2nnc(C)s2)c1	-5.0%
Cc1ccc(NC(=O)C2CCCN(S(=O)(=O)c3cnc[nH]3)C2)c(Br)c1 (stereo not drawn)	3.3%
O=C(OCC(=O)c1c[nH]c2ccccc12)c1ccco1	7.9%
Cc1cccc(-c2c3c(=O)n(C)c(=O)n(C)c3cn2-c2ccc(O)cc2)c1	-9.4%
NC(=O)CSc1nnc(COc2ccccc2)n1C1CCCCC1	7.5%
O=C(NCc1cccnc1)C1CCCCN1S(=O)(=O)c1ccc(F)cc1 (stereo not drawn)	-0.7%
NC(N)=NC(N)=Nc1ccc(S(=O)(=O)O)cc1	3.0%[11.4 µM]
Cc1cccc(NC(=O)C23CCC(C)(/C(=N/O)C2)C3(C)C)c1 (stereo not drawn)	-3.8%
Cn1c(=O)oc2cc(S(=O)(=O)NC3CCCCCCC3)ccc21	4.3%
COC1CCCCC1NS(=O)(=O)c1ccccc1 (stereo not drawn)	1.0%
CCCCn1c(CN2CCN(C(=O)OCC)CC2)nc2c1c(=O)[nH]c(=O)n2C	-0.7%
COC(=O)C1CN(S(=O)(=O)c2ccc(C)cc2)CCN1S(=O)(=O)c1ccc(C)cc1 (stereo not drawn)	-8.2%
CC1(C)Cc2ccccc2-c2nnc(-c3cccc(O)c3)n21	?
CCCCn1c(CN2CCN(c3cccc(Cl)c3)CC2)nc2c1c(=O)[nH]c(=O)n2C	9.3%
Cc1ccc(C)c(NC(=O)CS(=O)(=O)c2cn(C)c3ccccc23)c1	-3.4%
Cn1c(=O)n(CC(=O)OCc2ccccc2)c(=O)c2c1nc1n2CCCN1C1CCCCC1	4.2%
OCC(O)C(O)C(O)CO (stereo not drawn)	-8.8%&-0.9%
Cc1ccccc1NC(=O)CC1SCCNC1=O (stereo not drawn)	7.0%
COc1ccc(NC(=O)c2oc3ccc(S(=O)(=O)N4CCC5(CC4)OCCO5)cc3c2C)cc1	-27.9%
CC(C)OC(=O)C[C@H](NC(=O)OC(C)(C)C)c1ccccc1	1.9%[11.4 µM]
Cc1cc2n(n1)C(c1ccccc1)Nc1ccccc1-2 (stereo not drawn)	25.1µM*
CCCc1cc(=O)[nH]c(SCC(=O)N2CCN(c3ccc(F)cc3)CC2)n1	2.9%
CCC(C(=O)O)c1ccccc1 (stereo not drawn)	4.0%
CC1(C)CC(=O)c2cnn(-c3nc4ccccc4[nH]3)c2C1	-15.9%
CN(CC(=O)NCCC1=CCCCC1)S(=O)(=O)c1ccc2c(c1)CCC(=O)N2	7.0%
Cc1ccc(NC(=O)COC(=O)CN2CSCC2=O)cc1C	-6.3%
CS(=O)(=O)N1CCCC(C(=O)NCCCN2CCc3ccccc3C2)C1 (stereo not drawn)	-4.5%
Cc1cc(SCC(N)=O)nc(SCC(=O)c2ccccc2)n1	2.9%
Cn1c(SCC(N)=O)nnc1C1CCN(C(=O)NCc2ccccc2)CC1	8.5%
COc1ccccc1C1CC(=O)Nc2cc3c(cc21)OCCO3 (stereo not drawn)	-3.5%
O=C(O)C(c1ccccc1)C1(O)CCCC1 (stereo not drawn)	3.8%
CCOc1ccccc1-n1c(COc2ccccc2)nnc1SCC(N)=O	13.8%
CN(C)S(=O)(=O)c1ccc(S(=O)(=O)N(CC(=O)Nc2ccccc2)CC2CCCO2)cc1 (stereo not drawn)	-1.7%
Cn1c(=O)c2c(ncn2CCCc2ccccc2)n(C)c1=O	-7.7%
CCCC(=O)c1cc(F)c(N2CCN(CCC#N)CC2)cc1C	0.8%
O=S(=O)(NCCNS(=O)(=O)c1cccs1)c1cccs1	5.5%
O=C(CN1CCc2ccccc21)Nc1ccc2c(c1)OCO2	0.9%
Cc1cc2ncc(-c3ccc(Cl)cc3)c(N)n2n1	-16.6%
O=C(Cc1cccs1)N1CCC(c2nc3c(nnn3Cc3ccc(F)cc3)c(=O)[nH]2)CC1	-7.3%
CCOC(=O)c1cnc(-c2cccc(OC)c2)[nH]c1=O	7.0%
CCOC(=O)CCn1nc(-c2ccccc2)cc1N	2.7%
OC(COCc1ccccc1)CN1CCCC1 (stereo not drawn)	3.1%
CC(=O)Nc1ccc(S(=O)(=O)Nc2cccc(NC(=O)C(C)(C)C)c2)cc1	3.7%
CC(C)NC1(C(N)=O)CCN(Cc2ccccc2)CC1	7.6%[11.4 µM]
COc1ccc(F)cc1S(=O)(=O)Nc1ccc(C)cc1	5.4%
COc1ccc2[nH]cc(CCNc3ccnc(-c4ccc(N(C)C)cc4)n3)c2c1	12.6µM*

Continuation.
SMILES	HSD17B inhib
CCOc1ccccc1Oc1c(C)oc2cc(OC(=O)N3CCOCC3)ccc2c1=O	1.9%
COc1ccc(-n2nnnc2SCC(=O)Nc2nnc(C)s2)cc1OC	17.0%
CC1(C)CC(=O)c2cnc(N3CCc4ccccc4C3)nc2C1	-0.4%
Oc1ccc2ccccc2c1C=NCc1cn2ccsc2n1	-8.6%
COC(=O)C1(S(=O)(=O)C2(C(=O)OC)CCCC2)CCCC1	2.9%
O=C(c1ccc2snnc2c1)N1CCSCC1	1.8%
Cc1nc2sc(C(=O)O)c(N)c2c2c1COC(C)(C)C2	4.8%
Cc1cc(NC(=O)CN2CCC(n3nnc4cc(C(F)(F)F)ccc43)CC2)no1	4.3%
Cc1nnc(SCCC(C)C)[nH]c1=O	1.1%
Cc1c(NC(=O)CSC2=C(C#N)C(c3ccccc3F)CC(=O)N2)c(=O)n(-c2ccccc2)n1C (stereo not drawn)	-3.5%
Cc1ccc(-c2nnc(N3CCN(C(=O)CN4C(=O)c5ccccc5C4=O)CC3)c3ccccc23)cc1	20µM*
COc1ccccc1-c1nnc(NC(=O)c2ccc(S(=O)(=O)N(C)C)cc2)o1	-9.1%
COc1cccc(-c2nc3n(n2)C(c2cccs2)C(C(=O)Nc2cccnc2)=C(C)N3)c1 (stereo not drawn)	1.5%
Cc1cc2ncn(C(=O)c3c(-c4ccccc4)noc3C)c2cc1C	5.2%
CCOC(=O)N1CCN(C(=O)CN2C(=O)CC(C)(C)S(=O)(=O)c3ccccc32)CC1	5.6%
COc1ccc(-n2nc(C(=O)N3CCC(C#N)CC3)c3c4ccccc4n(C)c3c2=O)cc1	0.6%
CCO[Si](CCCN)(OCC)OCC	2.5%
O=C(On1c(-c2ccccc2)nc2ccccc2c1=O)c1ccco1	?
CCOC(=O)c1ccc(NC(=O)C2CCN(S(=O)(=O)CC)CC2)cc1	5.4%
COc1ccc(OC)c(C2=Nn3c(nnc3-c3cccc(OC(C)C)c3)SC2)c1	-12.7%

By substructure: the compounds so far containing a tert-butyl group
SMILES	HSD17B inhib
CC(C)OC(=O)C[C@H](NC(=O)OC(C)(C)C)c1ccccc1	1.9%[11.4 µM]
CC(=O)Nc1ccc(S(=O)(=O)Nc2cccc(NC(=O)C(C)(C)C)c2)cc1	3.7%

New compounds follow:
SMILES	HSD17B inhib
COC(=O)c1[nH]c2ccc(C)cc2c1NS(=O)(=O)c1ccc(F)cc1	?
O=C(O)C1C2C=CC(C2)C1C(=O)NCc1ccccn1 (stereo not drawn)	9.0%
O=C(Nc1ccc(Cl)cc1)NC1(C(=O)NCCCN2CCOCC2)CCCCC1	-2.5%
COc1ccc(NC(=O)N2CC[C@@]3(CCCN(C(=O)c4ccncc4)C3)C2)cc1	2.4%
O=C(NCC1CCCO1)c1ccc(COc2ccc(F)cc2)o1 (stereo not drawn)	1.5%
CCOC(=O)C1=C(C)Nc2nc(C)nn2C1c1ccc(OCC)c(OC)c1 (stereo not drawn)	6.9%
c1ccc(Cn2c(-c3cccs3)nc3nc4ccccc4nc32)cc1	2.51µM*
N#Cc1c(N)nc2c(c1N)CC(=O)N2c1ccccc1-c1ccccc1	3.7%
CN(Cc1ccccc1)Cc1nc2c([nH]1)c(=O)n(C)c(=O)n2C	16.6%
O=C1C(CCC(O)c2ccc(F)cc2)C(c2ccc(O)cc2)N1c1ccc(F)cc1 (stereo not drawn)	7.6%

An excerpt of these results, in markdown.
| Structure | HSD17B inhib |
| --- | --- |
| Cn1c(=O)oc2cc(S(=O)(=O)NC3CCCCCCC3)ccc21 | 4.3% |
| COC1CCCCC1NS(=O)(=O)c1ccccc1 (stereo not drawn) | 1.0% |

Following part.
SMILES	HSD17B inhib
CCCCCC(=O)N1CCN(CCN=CC2=C(O)CC(c3ccc(OC)cc3)CC2=O)CC1 (stereo not drawn)	-11.4%
O=C(CN1CCC(O)(c2ccc3c(c2)OCO3)CC1)N1CCOCC1	-4.0%
Cc1ccc(C2CC(c3cccc(Br)c3)n3nc(N)nc3N2)cc1 (stereo not drawn)	-3.9%
Cc1cc(C(=O)OCC(=O)Nc2cc(C(F)(F)F)ccc2N2CCOCC2)c(C)o1	-12.9%
Cc1cc(C)c(S(=O)(=O)N(C)CC(=O)N2CCCCC2)c(C)c1	1.1%
COc1cc(NS(=O)(=O)c2ccc(NC(=O)COc3ccccc3Cl)cc2)nc(OC)n1	-0.7%
Cc1cc(NC(=O)c2cncc(Br)c2)n(-c2ccccn2)n1	3.5%
Nc1nnc(N2CCc3ccccc32)s1	-13.1%
COC(=O)[C@@]1(Cc2ccccc2)[C@H]2c3cc(C(=O)N(C)C)n(Cc4ccc(O)c(OC)c4)c3C[C@H]2CN1C(=O)c1ccccc1	-4.0%
Cn1c(=O)c2c(nc(NCCCN3CCOCC3)n2Cc2cccc(Cl)c2)n(C)c1=O	4.8%
CCC(C)C(NC(=O)C1CCC(C)CC1)C(=O)NC(C(=O)OC)C(C)C (stereo not drawn)	10.7%
CCCCOC(=O)C1[C@H]2C(=O)N(Cc3cccs3)C[C@]23C=C[C@H]1O3 (stereo partly drawn)	11.0%
Cn1c(=O)cc(OCCCC(=O)NCc2ccco2)c2ccccc21	-6.9%
FC(F)(F)c1ccc(-n2ccnc2)nc1	2.6%
N#CC1=C(SCC(=O)NC2CCCCC2)NC(=O)CC1c1ccco1 (stereo not drawn)	-6.2%
c1ccc2c(Nc3ccncc3)nc(-c3ccc4c(c3)OCO4)nc2c1	25.1µM*
O=C(Cn1cnc2c(nnn2Cc2ccc(F)cc2)c1=O)NCc1ccco1	-3.3%
Cc1ccc(-n2ncc3c(N4CCN(c5ccc(F)cc5)CC4)ncnc32)c(C)c1	-2.5%
CCN(CC)C(=O)Oc1ccc(NC(C)=O)cc1	9.3%
CN=C(NC#N)SCC(=O)c1ccc(Cl)cc1Cl	-7.2%
Oc1c(C(c2ccccc2)N2CCN(Cc3ccccc3)CC2)sc2ncnn12 (stereo not drawn)	-2.8%
Cc1ccc2nc(/C(C#N)=N/O)[nH]c2c1	?
Cc1cc(C)nc(N2CCN(c3nc(C)nc4c3oc3ccccc34)CC2)n1	12.2%
Cc1ccc(Nc2nc(C3CC3)cs2)cc1	-17.4%
O=C(C1CC1)N1CCN=C1SCc1cccc(F)c1	1.1%
COc1ncc2ncc(=O)n(C)c2n1	-3.4%
NCCNC(=O)c1ccc(Cl)cc1	3.9%&-22.3%
CCc1c(O)nc(SCC(=O)N2CCCCC2)n(-c2ccccc2C)c1=O	7.1%
O=C(CSCC(=O)N1CCCCC1)OCC(=O)c1c[nH]c2ccccc12	-2.2%
O=C(O)C(=Cc1ccc(-c2ccccc2)cc1)C(=O)O	-3.5%[11.4 µM]

Filtered by structure: the entries above with a COOH group.
SMILES	HSD17B inhib
CCC(C(=O)O)c1ccccc1 (stereo not drawn)	4.0%
O=C(O)C(c1ccccc1)C1(O)CCCC1 (stereo not drawn)	3.8%
Cc1nc2sc(C(=O)O)c(N)c2c2c1COC(C)(C)C2	4.8%
O=C(O)C1C2C=CC(C2)C1C(=O)NCc1ccccn1 (stereo not drawn)	9.0%
O=C(O)C(=Cc1ccc(-c2ccccc2)cc1)C(=O)O	-3.5%[11.4 µM]

(listing goes on)
SMILES	HSD17B inhib
CC(C)C(=O)c1c(C(C)C)nn2ccccc12	-6.4%
COc1cccc(-c2nc(CS(=O)(=O)CC(=O)N3CCN(C)CC3)c(C)o2)c1	6.2%
COCCn1c(SCc2nnc(-c3ccccc3)o2)nc2sc3c(c2c1=O)CCC3	-4.7%
C/C(=C\[C@@H](NP(=O)(c1ccccc1)c1ccccc1)c1ccccc1)CO[Si](c1ccccc1)(c1ccccc1)C(C)(C)C	-21.8%
N#CCCSCc1ccc2oc(C(=O)O)cc2c1	-1.2%
CCCc1[nH]nc2c1C1(C(=O)N(C(C)C)c3ccccc31)C(C#N)=C(N)O2 (stereo not drawn)	-1.6%
CC(=O)c1ccc(N2CCN(C(=O)C3CCN(S(=O)(=O)Cc4ccccc4)CC3)CC2)cc1	-1.1%
O=C(CCCc1nc(-c2ccc(Cl)cc2)no1)Nc1cccnc1	-2.1%
CC(=O)C1C(c2ccc(F)c(F)c2)NC(=O)NC1(O)C(F)(F)F (stereo not drawn)	-0.5%
O=C(CCSc1ccccc1)NC1CCCC1	5.7%
O=C(Cn1cc2c(n1)CCCC2)NCCCN1CCN(c2ccccc2F)CC1	5.8%
C=CCn1c(CNC(=O)c2ccccc2C)nnc1SCC(=O)NC1CCCC1	9.4%
CCOC(=O)Cn1nnnc1C(CC)N(Cc1cccs1)Cc1cc2ccc(OC)cc2[nH]c1=O (stereo not drawn)	-9.7%
Cc1ccc(-n2c(SCC(=O)OC(C)C)nnc2-c2ccccn2)cc1	-5.8%
C=CC1=C(C)C2=Cc3c(C=C)c(C)c4[n]3[Sn+2][n]3c(c(C)c(CCC(=O)O)c3=CC3=NC(=C4)C(C)=C3CCC(=O)O)=CC1=N2	31.6µM*
COc1ccc(NC(=O)CC2SC(=Nc3ccccc3)NC2=O)c(OC)c1 (stereo not drawn)	-3.1%

From PubChem BioAssay
